Sfp PPTase inh: Sfp phosphopantetheinyl transferase inhibition | 3.5% of 310,000 active | Biochemical Sfp PPTase activity, qHTS | Q9F4F7 | Potency, µM, without a hit: max response, negative = inhibition, most hits filed as inhibitors; active = well fitted inhibition curve with a large enough effect; inconclusive = small, poorly fitted or top-dose-only effect, or another doubt; inactive = no such curve, though single readings can be large or run the other way;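 also: the enzyme is Sfp with the accession as filed and its product quenches rhodamine fluorescence; potency is read from the fitted curve at half-maximal effect; 0% = enzyme reaction without inhibitor and -100% = no enzyme wells; top concentration of the series not given in the record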
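With Hepes-Na pH 7.6 buffer containing 10 mM MgCl2, Sfp (15 nM) modified BHQ-2-YbbR (12.5 uM) using rhodamine-CoA (5 uM). Two reads 30 minutes apart at 525/598 nm yielded each well's rate.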
Six1-Eya2 inh: blocks human Six1 binding to Eya2 | Q15475+O00167 | AlphaScreen GST-Six1/His-Eya2 binding, biochemical; stronger effect = lower value; control for the full effect not named in the record | activity change, % (no concentration beside the values) | 0.56% of 360,000 active | AID 651725; in the data active = activity change below about -65%; inconclusive = about -30% to -65%; inactive = above about -30%; also: % is scaled to controls: 0 for no effect and ±100 for the full control effect; compound concentration not given in the record
Target sequence (O00167 whole entry, looked up): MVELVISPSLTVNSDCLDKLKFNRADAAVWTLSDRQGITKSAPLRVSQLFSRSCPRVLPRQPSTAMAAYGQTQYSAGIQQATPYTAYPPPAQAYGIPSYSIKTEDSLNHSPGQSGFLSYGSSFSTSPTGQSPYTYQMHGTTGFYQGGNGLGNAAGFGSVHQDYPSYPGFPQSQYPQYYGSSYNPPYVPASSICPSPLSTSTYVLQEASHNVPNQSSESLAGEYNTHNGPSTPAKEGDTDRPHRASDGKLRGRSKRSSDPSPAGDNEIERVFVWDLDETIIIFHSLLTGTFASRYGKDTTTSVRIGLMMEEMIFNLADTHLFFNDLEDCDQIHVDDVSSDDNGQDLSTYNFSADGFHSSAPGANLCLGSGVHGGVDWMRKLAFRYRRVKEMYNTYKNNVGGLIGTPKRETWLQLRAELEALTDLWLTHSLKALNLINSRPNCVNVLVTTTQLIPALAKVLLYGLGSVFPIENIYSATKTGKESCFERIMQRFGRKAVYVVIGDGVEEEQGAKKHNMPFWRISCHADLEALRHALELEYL
Target sequence (Q15475 whole entry, looked up): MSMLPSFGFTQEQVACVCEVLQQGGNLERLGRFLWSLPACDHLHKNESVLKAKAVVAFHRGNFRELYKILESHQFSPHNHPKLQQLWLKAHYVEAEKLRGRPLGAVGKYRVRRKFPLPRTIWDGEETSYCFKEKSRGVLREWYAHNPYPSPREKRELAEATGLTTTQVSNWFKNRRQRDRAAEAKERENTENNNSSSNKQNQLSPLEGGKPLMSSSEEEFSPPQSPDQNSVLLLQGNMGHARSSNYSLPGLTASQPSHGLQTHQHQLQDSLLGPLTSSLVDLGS
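Six1/Eya2 binding was read as AlphaScreen signal after compounds were pinned into GST-Six1 plus His-tagged Eya2 (5X stock 250/500 nM) in pH 8.0 Tris/NaCl/TCEP buffer, beads added, then incubated 1 h, 37 C, dark.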
D2 potentiator: human D2 receptor positive allosteric modulation; DiscoveRx D2 beta-arrestin cells, luminescence, 90 min; 100% = 57 uM dopamine signal; 0.23% of 360,000 active; potentiation, % (no concentration beside the values); P14416; active = potentiation of 50% or more; inconclusive = 30% to 50%; inactive = 30% or less;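 also: compound concentration not given in the record; tested on top of an EC20 dose of dopamine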
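PathHunter beta-arrestin assay in DiscoveRx D2 cells. Compounds were added with an EC20 of dopamine (50 nM final) for 90 min at 37 deg C. Luminescence was read 1 h after detection reagent, with 57 uM dopamine as the EC100 control.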
TRPV1 potentiator: enhances activation of the human vanilloid receptor TRPV1; Q8NER1; TRPV1-expressing cells, Fluo-8 calcium influx, capsaicin EC20 potentiation; host cell line not named in the record; control for the full effect not named in the record; potentiation, % at 8.33 µM; 0.02% of 320,000 active; active means potentiation above 80%; inconclusive means 30% to 80%; inactive means below 30%; also: 0% is about no effect
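TRPV1-expressing cells were cultured overnight at 35.5C and loaded with Fluo-8 calcium dye for 40 to 90 min at room temperature. After a 10 s baseline, compound was added and calcium influx was read kinetically for 3 min (ex 480/em 520 nm).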
PINK1 modulator: changes PINK1 expression | PINK1 immunofluorescence, high-content cytometry, 24 h | Potency, µM (doses to about 76.6 µM), without a hit: at the highest dose activation (PINK1 increase), usual class: activators | 0.2% of 410,000 active; active = well fitted activation curve with a large enough effect; inconclusive = small, poorly fitted or top-dose-only effect; inactive = flat fitted curve, though single readings scatter; cell line not stated here;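 also: potency is read from the fitted curve at half-maximal effect; % of control where 0% means no effect; nearly all actives have a fitted effect of over 65% in size; a mitochondrial uncoupler was the plate control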
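PINK1 protein level read as immunofluorescence by microplate cytometer in a fixed, stained stable cell line after 24 h exposure to five compound concentrations, with CCCP as control.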
D2 ag: human D2 receptor agonism in beta-arrestin assay | P14416 | DiscoveRx PathHunter D2 beta-arrestin, luminescence, 90 min; 100% = 57 uM dopamine signal | activation, % (no concentration beside the values) | 0.084% of 360,000 active; in the data active = activation above about 40%; inconclusive = about 15% to 40%; inactive = below about 15%; also: compound concentration not given in the record; the text of the record calls up to 30% inactive
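DiscoveRx PathHunter D2 beta-arrestin cells (2,100/well) attached overnight, then compound-stimulated 90 min at 37 C in HBSS/10 mM HEPES/0.1% Tween-20 buffer; beta-galactosidase complementation read by luminescence after 1 h at ambient temperature. Dopamine 57 uM final (EC100) as control.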
CtBP-E1A blk: inhibitors of CtBP/E1A interaction; 0.49% of 340,000 active; AlphaScreen GST-E1A/His-CtBP binding, 1536-well; stronger effect = lower value; control for the full effect not named in the record; activity change, % (no concentration beside the values); in the data active means activity change below about -65%; inconclusive means about -30% to -65%; inactive means above about -30%; also: % is scaled to controls: 0 for no effect and ±100 for the full control effect; compound concentration not given in the record
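Steps: dispense buffer (Tris pH 8.0, NaCl 300 mM, TCEP 1 mM, BSA, Tween 20); add 5X protein mix (GST-E1A, His-CtBP, 125 nM each); pin 23 nL compound; 2 h at 37 °C, dark; add 5X beads (50 ug/mL); 1 h; read.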
An asterisk follows results filed as active; ? = inconclusive; · = no result given; [ ] = another dose, or the depositor's remark.

Compound	Sfp PPTase inh	Six1-Eya2 inh	D2 potentiator	TRPV1 potentiator	PINK1 modulator	D2 ag	CtBP-E1A blk
Cc1ccc(S(=O)(=O)NCC(=O)N(CCc2ccccc2)CC(=O)NCc2ccco2)cc1	-19.3%	-0.1	6.3	0.1	0.1%	1.0	3.6
CC1(C)C(=O)Nc2ccccc2N1C(=O)CN1C(=O)c2ccccc2C1=O	4.3%	-12.3	3.9	7.6	-1.9%	1.3	-0.2
Cc1ccc(C(=O)CNc2cc(C)ccc2C)cc1	-4.3%	-1.2	-24.9	-19.1	3.4%	-17.3	-3.0
O=[N+]([O-])c1ccc2c(c1)[nH]c(=S)n2-c1ccccc1	-99.2%	0.0	-4.6	15.6	-2.1%	-11.4	-26.0
CCOc1ccc(-c2ccc(SCC(=O)NCC3CCCO3)nn2)cc1 (stereo not given)	17.6%	-3.9	3.2	6.6	2.2%	5.7	-0.3
Cc1ccc(S(=O)(=O)N2CCCCC2)cc1NC(=O)CSc1nnc(N)s1	16.8%	0.0	-4.4	1.8	4.2%	-5.7	-3.0
S=C(NCc1ccccc1)NCc1ccc(Cl)cc1	10.5%	1.5	-3.1	-3.5	19.4%	-3.5	-5.2
CC(=O)c1cccc(NS(=O)(=O)c2ccc(N/C=C/C(=O)c3ccc(F)cc3)cc2)c1	22.5%	-13.7	-1.9	0.2	0.8%	1.0	-4.6
Cc1ccc2nc(N3CCN(C(=O)c4cccs4)CC3)c(C#N)cc2c1	-9.0%	27.0	-2.9	16.3	-0.1%	-2.9	25.6
Cc1oc2cc3oc(=O)c(CCC(=O)NC4CC4)c(C)c3cc2c1C	-10.0%	0.7	-3.0	10.1	0.2%	6.0	-1.3
CC(=O)c1cccc(N2C(=O)CC(N3CCN(S(=O)(=O)c4ccccc4F)CC3)C2=O)c1 (stereo not given)	·	-5.4	0.1	·	-0.7%	-3.3	-9.3
COc1cc(NC(=O)COc2ccc(-n3cnnn3)cc2)c(OC)cc1Cl	1.6%	3.2	0.7	-10.3	-0.1%	0.6	-0.6
C=CCOCCN1C(=O)C2C3C=CC(C2C1=O)C1C2C(=O)N(CCOCC=C)C(=O)C2C31 (stereo not given)	1.8%	?	-10.1	-1.7	1.4%	1.3	-25.3
O=C(Nc1ccccc1NC(=O)C1CCCO1)c1ccco1 (stereo not given)	9.2%	9.5	-1.8	5.0	2.1%	4.3	-0.4
CN(C)S(=O)(=O)Oc1ccccc1C(=O)Nc1ccc(F)cc1F	2.1%	8.3	-1.5	0.1	1.7%	0.7	-1.1
CCCCNC(=O)C1(C)CCN1C(=O)c1cccnc1Oc1ccccc1 (stereo not given)	·	1.9	-4.5	·	1.3%	-2.6	7.3
CC1(C)CC(NC(=O)C2CCN(S(=O)(=O)c3ccc(Cl)c(C(F)(F)F)c3)CC2)CC(C)(C)N1	·	0.5	-1.4	·	1.5%	-1.4	·
COc1cccc(C(=O)/C=C/Nc2ccc(S(=O)(=O)Nc3ncccn3)cc2)c1	4.0%	-5.5	-2.6	-13.5	-1.1%	0.4	-10.2
CC(NC(=O)C1CC12CCC2)c1ccccc1 (stereo not given)	-1.6%	-0.1	-3.5	0.2	1.7%	-4.5	·
Cc1ccc(S(=O)(=O)c2c(C)nn(C(C)(C)C)c2OC(=O)c2cccs2)cc1	21.8%	-4.4	6.7	8.2	?	-4.6	-1.9
O=C(NCC1CCCO1)c1cccc(S(=O)(=O)Nc2ccccc2Cl)c1 (stereo not given)	·	3.7	-13.9	·	0.9%	-2.0	1.8
Cc1ccc(C(=O)NC(=S)N2CC(C)OC(C)C2)cc1[N+](=O)[O-] (stereo not given)	3.9%	1.7	-7.4	3.5	7.0%[38.3 µM]	0.3	5.5
COc1ccc(C(=O)N(C)C2CCCN(Cc3ccccc3F)C2)cc1C (stereo not given)	2.6%	0.6	-2.6	-9.6	1.6%	-5.5	1.2
COc1ccc2oc(-c3cccc(NC(=O)CSc4ccc(Cl)cc4)c3)nc2c1	?	-2.2	-4.7	-9.5	5.6%	2.1	3.3
NC(=O)CSc1nc2ccccc2c(=O)n1-c1ccccc1	9.9%	-18.4	-6.6	20.2	-0.9%	2.2	10.6
COC(=O)c1cc(N=Nc2c(C)[nH]c3ccccc23)cc(C(=O)OC)c1	0.1%	-0.6	-1.2	1.0	5.9%	-2.4	-6.6
COc1cccc(C=NNC(=O)C(C)SC(C)C(=O)NN=Cc2cccc(OC)c2)c1 (stereo not given)	·	4.2	-5.6	·	10.9%	1.3	2.4
CCCCOC(=O)CSc1nnc(N)s1	9.7%	1.7	1.4	-3.0	-1.6%[38.3 µM]	-1.1	6.8
CCOC(=O)Cc1c(C)nc2c(-c3ccc(Cl)cc3)c(C)nn2c1C	23.2%	-2.3	-4.1	-7.7	2.0%	-2.8	-17.2
CC12CCC(=O)N1C(C(=O)Nc1ccc(Cl)c(S(=O)(=O)N3CCCCC3)c1)CS2 (stereo not given)	·	-1.2	-3.6	-14.8	4.9%	3.5	3.6
CCCN(CC(=O)Nc1ccccc1C)C(=O)c1cccc(S(=O)(=O)N2CCN(c3ccccc3)CC2)c1	·	-4.5	-1.7	15.7	1.0%	-1.2	-8.3
O=[N+]([O-])c1ccc(O)c(/C=N/Nc2ccccn2)c1	8.4%	-90.4*	-7.4	2.0	-2.2%	-2.2	-92.1*
C[C@@H](C(=O)N1CCNCC1)n1cc(CCCN=C(N)N)nn1	-2.3%	14.4	0.4	-9.5	-0.8%	-2.3	4.0
CC(C)CCNC(=O)c1cc2c(=O)[nH]c3ccccc3c2s1	2.1%	0.9	-7.7	-7.6	0.1%	0.5	·
Cc1nn(-c2ccccc2)c2sc(C(=O)N(CC(=O)NC(C)(C)C)Cc3ccco3)cc12	-9.6%	5.2	8.7	-17.1	4.2%	-3.9	-7.1
O=C(Cc1ccccc1)NNC(=O)C1CC=CCC1 (stereo not given)	17.3%	9.4	-4.4	5.8	-0.1%	-3.1	-7.5
CNc1snc(C)c1C(=O)OC(C)C(=O)Nc1cccc(OC)c1 (stereo not given)	·	-3.2	-5.6	-1.5	1.5%	-2.2	·
COc1ccc(NS(=O)(=O)c2ccc(NC(=S)NC(=O)c3cccc(F)c3)cc2)nn1	-19.6%	-10.9	-8.5	-5.3	-0.1%	-6.4	12.1
CC1=CCC[C@@H]2[C@@](C)(CC/C(C)=C/C(=O)O)[C@H](C)CC[C@@]12C	-4.8%	-7.7	1.3	-26.6	2.0%	-0.5	3.7
CN(C)S(=O)(=O)c1ccc(NC(=O)N2CCOCC2)cc1	11.1%	9.1	-2.0	4.1	-0.3%	2.4	3.6
COc1cc(C2=NOC(C(=O)NCc3ccco3)C2)cc(OC)c1OC (stereo not given)	?	-1.1	-7.7	-9.9	11.2µM*	-1.5	5.9
CCC(C)N(C(=O)COC(=O)CNC(=O)c1ccccc1F)C1CCS(=O)(=O)C1 (stereo not given)	16.8%	16.0	?	17.7	0.9%	3.6	·
Cc1ccc(OC(=O)c2ccc([N+](=O)[O-])cc2Cl)cn1	8.9%	-21.7	-3.8	20.8	-0.4%	6.5	-3.0
COc1cccc(C2=NOC(C(=O)NCc3ccccn3)C2)c1 (stereo not given)	13.0%	2.7	-2.1	·	-1.9%[38.3 µM]	1.0	6.6
COc1cc2c(cc1CNC[C@H]1O[C@@H](n3ccc(N)nc3=O)[C@H](O)[C@@H]1O)OCO2	·	-1.3	5.9	·	2.1%	-3.5	3.1
COc1ccc(C(=O)N(C)CCCC2CCCC2)cc1OC1CCN(C(C)C)CC1	3.1%	2.0	-21.1	-3.2	0.9%	-1.7	4.1
COC(=O)CN1C(=O)N/C(=C/c2cc(OC)c(OC)cc2C)C1=O	17.0%	-6.9	-2.2	-11.0	0.7%	-4.0	-0.2
CC(=O)c1ccc(OCC(=O)Nc2cccc(S(=O)(=O)N3CCCC3)c2)cc1	·	-4.1	-11.4	-2.6	-0.8%	-1.1	3.8
CCN1C(=O)S/C(=C\c2ccc(N3CCOCC3)cc2C)C1=O	-4.8%	-0.4	0.4	-2.6	2.1%	-0.9	4.6
O=[N+]([O-])c1cc(-c2ccn[nH]2)ccc1Cl	6.1%	-6.4	2.1	-6.3	0.5%	-4.1	6.0
Cc1ccc(C(=O)NC(=S)Nc2cc(C(F)(F)F)ccc2Cl)cc1	?	5.2	-21.3	12.6	2.6%	0.5	6.3
Cc1ccc(S(=O)(=O)N2CCCN(S(=O)(=O)c3ccc(C)c(C)c3)CC2)cc1C	9.4%	0.9	-11.6	3.8	1.0%	-1.7	-15.3
